Calb FLC = C. albicans growth modulation with fluconazole; 0.57% of 300,000 active; growth inhibition, % (test concentration not listed); C. albicans CaCi-2 (fluconazole-resistant clinical isolate) + fluconazole, Alamar Blue growth, 48 h; AID 1979;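 active means most replicates above 75%; inconclusive means exactly half above 75%; inactive means most below 75%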;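 further: all wells also contain fluconazole at 8 µg/ml as a sub-toxic cotreatment; 0% = median of DMSO wells and 100% = median of geldanamycin control wells; wells of about 8 µL received 7.5 nL stock; the first replicate is given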
RanGTP-Impb inh = disruptors of Ran-importin-beta complex formation – biochemical, FRET, CFP-Ran, YFP-importin-beta, homogeneous, primary screen; cell-free CFP-Ran/YFP-importin-beta FRET ratio; inhibition, % (test concentration not listed); 1.1% of 300,000 active;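 active means most replicates above 15%; inconclusive means exactly half above 15%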;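 further: 0% = DMSO wells and 100% = Ran loaded with GDP instead of GTP; wells of about 40 µL received 100 nL stock; the first replicate is given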
T cruzi inh = blocks replication of Trypanosoma cruzi; 1.4% of 300,000 active; T. cruzi beta-gal in NIH3T3, luminescence, 90 h; AID 1885; inhibition, % (test concentration not listed);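 active means mean inhibition across valid replicates above about 55%, limit read from the data; inconclusive means mean below that limit but half or more replicates reach it; inactive means mean below it, under half of replicates reach it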;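 further: signal also drops with host cell toxicity which is not excluded here; 0% = plate median of DMSO wells and 100% = zero luminescence signal; higher percent means less beta-gal luminescence so fewer parasites; stock transfer was 50 nL into about 50 µL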
* hit, by the source's call; ? = inconclusive. These rows are one share of the data; rates above refer to the full screens.

SMILES	Calb FLC	RanGTP-Impb inh	T cruzi inh
CCN(C(=O)CCc1nc(-c2ccccc2F)no1)c1cc(OC)ccc1OC	-3	?	25
CS(=O)(=O)Nc1ccc(S(=O)(=O)NCCc2ccccc2)cc1	6	-5.0	-10
COc1ccc(S(=O)(=O)N2CCCCCC2)cc1C(=O)OCC(=O)NC(N)=O	-4	1.3	1
Cc1ccnn2c(-c3ccccc3)c3c(=O)n(C)c(=O)n(C)c3c12	-1	7.6	5
O=C(c1cccc(N2C(=O)C3CC=CCC3C2=O)c1)N1CCCCCC1 (configuration not stated)	?	-4.7	7
COc1ccccc1CNC(=O)C1CCCN(S(=O)(=O)c2c(C)[nH]c(=O)[nH]c2=O)C1 (configuration not stated)	18	-0.8	-14
COc1ccc(-c2ccc(-c3nnc(-c4ccncc4)o3)cc2)cc1	9	-1.6	-6
COC(=O)C(CC(=O)c1ccc(Br)cc1)n1ccnc1 (configuration not stated)	2	?	40
O=C(CS(=O)(=O)Cc1ccccc1)N1CCc2ccccc2C1	0	-2.2	-5
CCCCN(CC)CCCNC(=O)Cn1nc(Cc2ccncc2)c2ccccc2c1=O	-9	4.4	-3
CC(=O)Nc1nc2c(c3c1c(=O)oc1ccccc13)CC(C)CC2 (configuration not stated)	-3	12	-12
COc1ccc(C)cc1NC(=O)C(C)N(c1ccc(C)cc1)S(C)(=O)=O (configuration not stated)	8	1.3	22
CCOC(=O)c1c(C)c(C(=O)NC2CCCCC2)c(C)n1CC	22	?	-4
COc1ccc(C(=O)N2CCN(c3ncnc4c(-c5ccccc5)nsc34)CC2)cc1	-4	-0.3	27
Cc1nc2ncnn2c(N2CCN(C(=O)Cc3cccs3)CC2)c1C	3	7.1	-13
Cn1nc(C(F)(F)F)c2cc(NC(=O)OCc3ccc(C(C)(C)C)cc3)sc21	7	-2.7	36
Cc1csc2nc(=O)c3ccccc3n12	-1	-1.4	-13
Cc1ccc2[nH]c3c(c2c1)CN(C(=O)CN1CCN(c2ccccc2)CC1)CC3	1	-23	16
O=C(Cc1ccccc1)NC(=S)Nc1cccc(C(F)(F)F)c1	29	4.6	-23
Cc1c2c(nc3c(C(=O)NC4CC4)cnn13)CCCC2	7	-1.5	-19
CCC(C)(C)n1nnnc1C(c1cc2cc3c(cc2[nH]c1=O)OCO3)N1CCN(C)CC1 (configuration not stated)	14	3.2	-13
O=C(NCCN1CCOCC1)c1cc2sccc2n1Cc1ccc(Cl)cc1	-1	6.5	-2
COc1ccc(C(c2nnnn2C2CCCC2)N2CCC(C(N)=O)CC2)c(OC)c1 (configuration not stated)	-10	-2.5	-19
CC(C)(C)C(C(Oc1ccc(Cl)cc1)n1cncn1)n1nnnc1C(c1cccc(Cl)c1)N1CCCCC1 (configuration not stated)	13	4.2	55*
O=C(NCc1ccco1)c1cccs1	1	?	-18

Single entries from above.
For Calb FLC, `Cc1ccc2[nH]c3c(c2c1)CN(C(=O)CN1CCN(c2ccccc2)CC1)CC3` is listed with 1
For T cruzi inh, `O=C(c1cccc(N2C(=O)C3CC=CCC3C2=O)c1)N1CCCCCC1` (configuration not stated) is listed with 7
For T cruzi inh, `O=C(NCc1ccco1)c1cccs1` is listed with -18
For Calb FLC, `O=C(NCCN1CCOCC1)c1cc2sccc2n1Cc1ccc(Cl)cc1` is listed with -1

Other results follow:
SMILES	Calb FLC	RanGTP-Impb inh	T cruzi inh
CCOc1ccc2nc(N3C(=O)/C(=C/c4ccc(Cl)cc4)NC3=S)sc2c1	-2	-5.3	-7
Cc1c(NC(=O)C(CC(=O)O)NCc2ccco2)c(=O)n(-c2ccccc2)n1C (configuration not stated)	-4	0.4	-7
COc1ccccc1C1N(c2ccc(F)cc2)C(=O)C2CCCN21 (configuration not stated)	8	0.6	-2
CN(Cc1ccccc1)C(=O)[C@H]1CCC(=O)N1Cc1ccco1	2	-6.1	-6
CC(C)n1cc(/C=C2/NC(=O)N(c3cccc(Cl)c3)C2=O)c2ccccc21	7	-3.6	4
Cn1c(=O)c2ncn(CC(=O)Nc3cc(C(F)(F)F)ccc3N3CCOCC3)c2n(C)c1=O	0	?	3
CCc1nnc(NC(=O)C2CCCCC2)s1	-3	0.1	6
Cc1nc2ccccn2c1-c1csc(NCc2ccco2)n1	3	1.1	16
O=C(NCCCN1CCCC1=O)c1cccs1	-3	?	-8
Fc1ccc(C(c2nnnn2C2CCCC2)N2CCN(Cc3ccccc3)CC2)cc1 (configuration not stated)	-8	-3.4	-9
Oc1ccc(N=Cc2ccc(-c3cccs3)s2)cc1	32	28*	-13
COc1ccc([C@@H]2C[C@H](c3ccccc3)Oc3cc(C)cc(C)c32)cc1	0	?	14
CC(=O)C1=C(O)C(=O)N(CCN(C)C)C1c1ccc(Cl)cc1 (configuration not stated)	2	-1.7	-6
Cc1ccc(NC(=O)CCn2nc(C)cc2C)cc1	-5	?	-8
Cc1ccc(S(=O)(=O)NCc2c(Cl)cccc2Oc2ccccc2)cc1	0	-0.7	16
Cc1cc(Cl)ccc1OCC(=O)NCCOc1nc(N2CCCCC2)nc(N2CCOCC2)n1	3	-0.2	21
O=C(NCCCN1CCOCC1)c1cn(-c2ccccc2)nc1-c1cccs1	20	?	9
COC(=O)C(Cc1ccccc1)NC(=O)CSc1nc(N)cc(=O)[nH]1 (configuration not stated)	-1	-1.5	-5
O=C1c2ccccc2S(=O)(=O)N1Cc1nnc(-c2ccccc2Br)o1	2	-0.2	3
COc1ccc(OC)c(C2Nc3nc4ccccc4n3C(C)=C2C(=O)Nc2ccc(C)cc2C)c1 (configuration not stated)	58	0.8	25
CC(=O)Nc1ccc(NC(=O)Cn2cc3c(n2)CCC(C)C3)cc1 (configuration not stated)	-4	0.2	18
COCCCN1C(=O)c2ccc(C(=O)O)cc2C1=O	-19	1.6	3
CCCOC(=O)c1ccc(NC(=O)c2cn(CC)c3nc(C)ccc3c2=O)cc1	-11	2.1	-5
O=c1ccc(/C=C/c2ccccc2)nn1Cc1ccccc1	-7	1.6	8
CC(C)Cc1nc2oc3c(N4CCN(C)CC4)ncnc3c2c2c1CCCC2	-16	6.9	22

The list goes on.
SMILES	Calb FLC	RanGTP-Impb inh	T cruzi inh
COc1ccc(-c2nc3ncccn3c2Nc2ccc3c(c2)OCCO3)cc1	4	-1.1	-1
Nn1c(Nc2ccccc2)nc2sc3c(c2c1=O)CCC3	7	4.9	3
CC(=O)Nc1ccc(S(=O)(=O)NNC(=O)c2cccc3ccccc23)cc1	7	-0.2	-12
CCn1nnnc1SCC(=O)c1cccc(OC)c1	-7	0.6	0
Oc1ccc(Nc2nc(NCC3CCCO3)c3ccccc3n2)cc1 (configuration not stated)	35	2.1	50
Nc1ccc2oc(CCc3ccccc3)nc2c1	-29	-0.1	5
CCOC(=O)N1CCC(n2c(=S)[nH]c3cc(OCC)c(OCC)cc3c2=O)CC1	-1	3.0	1
COC(=O)CN(c1nc(C)cc(OC)n1)S(=O)(=O)c1ccccc1	15	0.0	-8
CC(C)NS(=O)(=O)c1ccc(CCC(=O)N2CCOCC2)cc1	-5	1.6	0
O=c1[nH]c2cc3c(cc2cc1CN(CCCO)Cc1nnnn1Cc1ccc(F)cc1)OCO3	-6	-2.1	-14
O=C(O)c1cc(S(=O)(=O)N2CCOCC2)c(Sc2ccccn2)cc1Sc1ccccn1	-5	0.6	2
CC(NC(=O)CSc1nc2sc3c(c2c(=O)n1-c1ccccc1)CCCC3)c1ccccc1 (configuration not stated)	1	0.2	47
CCCn1c(N2CCN(CC(=O)c3c(C)n(C)c4ccc(OC)cc34)CC2)nc2c1c(=O)[nH]c(=O)n2C	-2	3.2	16
CCN1C(=O)/C(=C/c2cn(C)nc2C)SC1=S	7	4.2	1
CC1CCN(c2nnc(N)s2)CC1	-12	-2.3	18
COc1ccc(OC)c(NC(=O)CC(NCCC2=CCCCC2)C(=O)O)c1 (configuration not stated)	32	3.8	-12
COc1ccccc1CNC(=O)c1c(N)n(CCCN2CCOCC2)c2nc3ccccc3nc12	20	126*	18
CC1=NNC(=O)/C1=C\c1cn(-c2ccccc2)nc1-c1ccc(F)cc1	19	-3.2	26
Cc1cccc(Nc2nc3c(c(=O)n(C)c(=O)n3C)n2Cc2ccccc2)c1	-3	1.6	-4
Cc1ccc(C(=O)CSc2ncnc3sc4c(c23)CCC(C)C4)cc1 (configuration not stated)	-5	2.2	-1
CCOCCN1CCN(c2c3c(nc4cc(-c5ccc(F)cc5)nn24)CCC3)CC1	-2	-0.2	4
O=C(Nc1ccccc1)N(Cc1ccccc1)Cc1ccccc1	-16	-0.3	28
COC(=O)c1ccc(Cl)c(NC(=O)CN2CCN(C)CC2)c1	1	3.7	2
COC(=O)C1=C(C(=O)OC)[C@@H]2Nc3ccccc3[C@@]23C[C@@H](C(=O)OC)N(C(=O)c2ccc(Br)cc2)C3=N1	23	2.3	-4
Cc1nn2c(N3CCN(c4ccccn4)CC3)cc(C(C)C)nc2c1-c1ccccc1	5	1.2	-9

Six structures out of the list, ordered by molar mass, high to low.
SMILES	Calb FLC	RanGTP-Impb inh	T cruzi inh
CCCn1c(N2CCN(CC(=O)c3c(C)n(C)c4ccc(OC)cc34)CC2)nc2c1c(=O)[nH]c(=O)n2C	-2	3.2	16
CC(NC(=O)CSc1nc2sc3c(c2c(=O)n1-c1ccccc1)CCCC3)c1ccccc1 (configuration not stated)	1	0.2	47
CC(=O)Nc1ccc(S(=O)(=O)NNC(=O)c2cccc3ccccc23)cc1	7	-0.2	-12
COC(=O)CN(c1nc(C)cc(OC)n1)S(=O)(=O)c1ccccc1	15	0.0	-8
CCN1C(=O)/C(=C/c2cn(C)nc2C)SC1=S	7	4.2	1
Nc1ccc2oc(CCc3ccccc3)nc2c1	-29	-0.1	5

(cont.)
SMILES	Calb FLC	RanGTP-Impb inh	T cruzi inh
COc1cc2cc(CN(CCO)S(=O)(=O)c3ccccc3Cl)c(=O)[nH]c2cc1OC	38	-2.1	-16
Cn1c(C(=O)N2CCCC(C(=O)NCCCc3ccccc3)C2)cc2sccc21 (configuration not stated)	10	2.4	-6
Cc1cnc(C(=O)Nc2cccc3cccnc23)cn1	0	-1.8	66*
COc1cc2c(C(=O)N3CCN(c4cccc(Cl)c4)CC3)cn(CC(C)C)c(=O)c2cc1OC	21	4.4	19
CC1CCN(CCCNC(=O)c2ccc(CS(=O)(=O)Cc3ccccc3F)o2)CC1	4	-4.1	-6
COc1ccc(C)cc1NC(=O)CN(c1ccccc1F)S(C)(=O)=O	13	-1.0	1
COCCCn1c(-c2ccc(OC)cc2)nc2nc3ccccc3nc21	-9	4.4	-5
Cc1cc(C)c(S(=O)(=O)NCC2CCC(C(=O)NCCCN3CCOCC3)CC2)c(C)c1 (configuration not stated)	1	-2.7	10
CN(C)CCN1C(=O)C(=O)/C(=C(/O)c2ccc(OCc3ccccc3)cc2)C1c1ccncc1 (configuration not stated)	0	-1.1	-15
Cc1cc(C)c2nc(N3CCCC3)c(C#N)cc2c1	26	2.2	-1
CCC(=O)N1CC2(CC(c3cccc(NC(=O)COc4ccc(Cl)cc4)c3)=NO2)C[C@@H]1C(N)=O (some centres not stated)	4	-1.9	-18
O=C(Cn1cnc2sc(-c3ccccc3)cc2c1=O)NCc1ccccc1	2	1.0	-15
COc1ccc(C(=O)Nn2cnc3scc(-c4cccs4)c3c2=O)c(O)c1	-32	0.8	0
Cc1ccc(S(=O)(=O)C(C#N)c2nc3ccccc3nc2N2CCC(C)CC2)cc1 (configuration not stated)	1	7.6	0
C=CCn1c(CCNC(=O)c2cccs2)nnc1SCC(=O)c1ccc(Cl)cc1	2	1.1	10
C=CCn1c(=S)[nH]c2sc3c(c2c1=O)CCC3	?	-0.7	0
CCOC(=O)N1CCC(NC(=O)C2CCN(S(=O)(=O)c3cccc4cccnc34)CC2)CC1	-2	3.7	-6
COc1cc(C(=O)Nc2ccc(S(=O)(=O)NC(C)(C)C)cc2)cc(OC)c1OC	-11	-1.0	1
COc1ccccc1CNC(=O)CNC(=O)Cn1cnc2ccccc2c1=O	-2	3.6	-10
COc1cc(S(=O)(=O)N2CCC(N3CCCCC3)CC2)ccc1-n1cnnn1	-1	3.9	-8
COc1ccccc1CNC(=O)c1ccccc1NS(C)(=O)=O	39	2.1	7
Cc1cc2nc3ccc(=[N+](C)C)cc-3sc2cc1N	26	6.2	69*
Cc1ccc(C)c(S(=O)(=O)NCc2ccc(C(=O)NCc3ccccn3)cc2)c1	2	-2.2	0
Cc1cc(C)c2[nH]c(=O)c(CN(Cc3nnnn3C3CCCC3)C3CCCCC3)cc2c1	-1	-4.8	4
CC(C)Cn1c(=O)c2c(c3ccccc31)OC(C)C(=O)N2 (configuration not stated)	9	5.1	-2
Cc1ccc(NC(=O)c2oc3ccc(S(=O)(=O)N4CCOCC4)cc3c2C)cc1C	-8	2.0	11
CCOC(=O)c1c2ccc(OCC(=O)N/N=C/c3ccc(Cl)cc3)cc2n2ccccc12	8	41*	4
CCn1c(CCCOc2ccc(Cl)cc2Cl)nnc1SCC(=O)Nc1cccc(F)c1	?	-3.1	8
Cc1ccc(S(=O)(=O)NCC2CCC(C(=O)NCc3ccco3)CC2)cc1 (configuration not stated)	-5	-0.5	-1

Bioassay records: PubChem, Broad Institute
